# Mtb H37Rv – M. tuberculosis H37Rv growth inhibitors, H37Rv strain (AID 1626); M. tuberculosis H37Rv growth inhibition; higher % means a stronger effect; inhibition, % at 10 µM, or IC50 in µM where a hit was titrated; hit rate 0.95% among 220,000;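 active means confirmed in a dose series; inconclusive means inhibition above 80% but not taken into the dose series; inactive means below 80% or under 30% at every dose of the series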;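 further: bacteria incubated seven days before Alamar blue readout; 0% = bacteria only wells and 100% = bacteria with antibiotic wells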
# Mtb bLac sens – beta-lactam sensitization of Mtb H37Rv, H37Rv. M. tuberculosis H37Rv growth with meropenem, percent inhibition; hits of this screen are not shown here. hit rate 0.27% among 330,000. inhibition, % at 25 µM;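 active means about 74% or more and at least 40 points above the plate without the antibiotic, then above 30% in a dose series; inconclusive means first-round hits that could not be retested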;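 further: growth measured after seven days incubation then overnight dye step; 0% = bacteria only wells and 100% = bacteria with antibiotic; twin plates without the antibiotic show which effects depend on it; some results filed as inactive read as strong as hits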
# RecA intein inh – Mtb RecA intein splicing inhibitors, primary screen, biochemical, fluorescence, HTS. cell-free RecA intein splicing. inhibition, %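 (about 9 µM by stock and volumes)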. hit rate 0.75% among 290,000; in the data active means inhibition above about 30%; inconclusive means no clear call, values can overlap the other calls;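 further: 0% = vehicle wells and 100% = reference inhibitor control wells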
# Target sequence (P9WHJ3 whole entry, looked up): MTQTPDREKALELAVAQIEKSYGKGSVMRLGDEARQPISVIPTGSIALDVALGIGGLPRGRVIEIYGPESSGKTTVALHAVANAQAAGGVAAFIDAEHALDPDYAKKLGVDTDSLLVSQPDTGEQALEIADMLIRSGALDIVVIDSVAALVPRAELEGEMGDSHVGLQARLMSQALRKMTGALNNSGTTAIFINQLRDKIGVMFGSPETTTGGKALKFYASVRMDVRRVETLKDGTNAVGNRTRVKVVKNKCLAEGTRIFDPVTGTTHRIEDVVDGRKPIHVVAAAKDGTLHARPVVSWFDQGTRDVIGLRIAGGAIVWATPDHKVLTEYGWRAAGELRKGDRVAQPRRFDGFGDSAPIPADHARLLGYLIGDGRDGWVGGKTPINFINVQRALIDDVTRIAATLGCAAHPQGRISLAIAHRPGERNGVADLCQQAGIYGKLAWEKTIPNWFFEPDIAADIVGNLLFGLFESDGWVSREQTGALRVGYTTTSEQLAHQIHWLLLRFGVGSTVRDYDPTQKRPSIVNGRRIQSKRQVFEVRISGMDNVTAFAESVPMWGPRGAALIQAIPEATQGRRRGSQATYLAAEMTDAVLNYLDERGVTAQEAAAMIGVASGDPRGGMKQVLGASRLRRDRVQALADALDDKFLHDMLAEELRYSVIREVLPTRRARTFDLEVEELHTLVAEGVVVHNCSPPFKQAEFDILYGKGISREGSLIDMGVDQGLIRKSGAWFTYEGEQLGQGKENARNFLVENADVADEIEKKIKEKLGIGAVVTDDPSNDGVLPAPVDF
# Arbovirus anti – antivirals against arbovirus infection, primary screen, cell-based, full library, 10K replicate subset; inhibition, % at 10 µM; arbovirus infection cell-based antiviral screen; AID 1251, 2008; hit rate 0.37% among 200,000;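 active means inhibition from about 30%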;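 further: bluetongue infection of BSR cells; cell survival read as ATP light after 72 h; 0% = infected wells without compound and 100% = uninfected wells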
# YopH PTP inh – YopH tyrosine phosphatase inhibitors, primary screen, biochemical, fluorescence Ex485/Em525 | YopH tyrosine phosphatase [Yersinia enterocolitica] | inhibition, %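 (about 10 µM by stock and volumes)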 | hit rate 0.16% among 140,000 | AID 898, 2007;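 active means inhibition of 50% or more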;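 further: controls were vehicle for no effect and minimum signal wells for full effect; inactives centre near -20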
# Arbovirus anti repeat – also measured in Arbovirus anti; calls as there; inhibition, %; measured here: 10K subset replicate screen; many hits read low in the repeat;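 first of two repeat runs on a subset; 0% = infected and 100% = uninfected wells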
# Starred values were filed as active, the others as inactive; ? = inconclusive; . = no result given; & = joins results of further samples.
SMILES,Mtb H37Rv,Mtb bLac sens,RecA intein inh,Arbovirus anti,YopH PTP inh,others
O=C(CCc1ccccc1)Nc1ccnn1C1CCN(Cc2ccc(OCCO)cc2)CC1,.,-10,0.2,.,.,
CC1(C)CC(NC(=O)c2cc(S(=O)(=O)N3CCCCC3)ccc2Cl)CC(C)(C)N1,.,-7,1.1,.,.,
Cc1ccc(OCCCn2ccnc2)cc1C,-4%,2,-1.7,4,-15,
Cc1ccc(C(=O)OC(C)CN2CCN(C)CC2)cc1 (stereo unspecified),-5%,-2,0.6,.,.,
CCCS(=O)(=O)N1CCN=C1SCc1ccc(F)cc1,.,-2,-2.1,.,.,
COc1ccc2nc(NC3=NCCN3)sc2c1,0%,-2,1.4,-4,3,
CCOc1ccc(N(CC(=O)NCCc2ccccc2)S(=O)(=O)c2ccccc2)cc1,.,-6,-0.5,.,.,
O=C(CSc1n[nH]c(=O)n1Cc1ccco1)c1ccc(F)cc1,0%,-4,-0.8,.,.,
CCOC(=O)c1c(C)n(C)c2ccc(OCC(O)Cn3c(C)nc4ccccc43)cc12 (stereo unspecified),18%,?,-2.9,18,-34,
CCOc1ccccc1CNC(=O)C1CCCN(c2ncnc3c2nc2n3CCCCC2)C1 (stereo unspecified),.,-4,-2.6,.,.,
O=C(CCC(=O)NNC(=O)c1ccccc1[N+](=O)[O-])NCc1ccccc1,0%,-7,-1.9,4,.,
Cc1ccc(-n2cc(CN3CCC(CO)(Cc4cccc(C(F)(F)F)c4)CC3)cn2)cc1,4.3µM*,100,2.1,-32,.,
Cc1ccc(NNC(=O)c2ccc(Cl)cc2)nn1,-9%,4,-4.0,.,.,
COc1cc(/C=N/N2CCOCC2)ccc1OCc1ccc(Cl)cc1,?,99,1.3,18,.,
CCC(C)C1NC(=S)N(Cc2ccccc2)C1=O (stereo unspecified),8%,3,.,3,-10,
CC(=O)c1cn(Cc2ccccc2C#N)c2ccccc12,-3%,0,9.9,-5,.,
CCOC(=O)C1CCN(C(=O)c2cccc(Cl)c2)CC1,2%,-2,0.9,5,-14,
Cc1ccc(NC2=NCCC2)cc1Cl,-5%,-4,0.4,-7,-10,
Cc1ccc(-n2c(C)cc(/C=N/NC(=O)Cn3c4ccccc4c(=O)c4ccccc43)c2C)cc1,13%,94,-47,-5,-6,
COC(=O)c1ccc(/C=N\NC(=O)c2c(C)nc3ccc(Cl)cn23)cc1,.,-1,0.1,.,.,
CCn1c(=O)c(C(=O)CC#N)c(N)n(Cc2ccccc2)c1=O,-3%,-1,0.3,.,.,
CCOC(=O)N1CCN(Cc2ccc(O)c3ncccc23)CC1,-4%,69,-23,-10,.,
NC(=O)c1nsc(C(=O)N(CC(=O)NC2CCCC2)c2cnc3ccccc3c2)c1N,-4%,-4,0.4,.,.,
CCCC(=O)N1N=C(c2ccccc2)CC1c1cn(C)c2ccccc12 (stereo unspecified),1%,1,18,-18,-18,
Cc1cccc(OCCCC(=O)N2CCCc3ccccc32)c1C,10%,20,19,-6,3,
# Additional compounds:
SMILES,Mtb H37Rv,Mtb bLac sens,RecA intein inh,Arbovirus anti,YopH PTP inh,others
O=C1CC(NC(=O)c2ccc(Cl)cc2)C(=O)N1 (stereo unspecified),.,-4,-3.3,.,.,
COc1cc(CO)ccc1OCc1ccc(Cl)nc1,-4%,6,-1.0,.,.,
COc1cccc(NC(=O)CCN2CCC(C(N)=O)CC2)c1,5%,-9,-0.6,-2,-46,
O=C(c1ccco1)N1CCN(C(=O)c2ccc(-c3cccc(C(F)(F)F)c3)o2)CC1,.,52,2.8,.,.,
COc1cccc(CNC(=O)C2CCN(S(=O)(=O)c3ccc4c(c3)NC(=O)C(C)S4)CC2)c1 (stereo unspecified),.,-3,0.2,.,.,
CCOc1cc(C(=O)Nc2ccc(C)cc2O)ccc1OCC(=O)N1CCOCC1,.,1,-2.5,.,.,
Cc1ccc(S(=O)(=O)N(C)CC(=O)NCCCc2ccccc2)cc1,.,-6,-1.7,.,.,
CCN(CC)S(=O)(=O)c1ccc(C)c(NC(=S)N2CCN(Cc3ccc4c(c3)OCO4)CC2)c1,6%,-3,3.4,23,.,
COc1ccc(NC(=O)N2CCc3ccccc3C2)cc1OC,.,1,0.8,.,.,
O=C(O)Cc1ccc(NC(=O)C2CC=CCC2C(=O)O)cc1 (stereo unspecified),-7%,5,1.6,8,-43,Arbovirus anti repeat=0
O=C(CSC1=NCCS1)NC(c1ccccc1)c1ccccc1,-12%,-2,2.4,-12,-26,
CC(C)CNC(=O)C(=O)NCc1ccccc1,-3%,0,0.0,6,.,
CCOC(=O)C1(C(=O)OCC)CC1c1ccccc1 (stereo unspecified),-3%,-7,0.0,6,-42,
CN(C)S(=O)(=O)NCC1CCCN(Cc2cc3ccccc3s2)C1 (stereo unspecified),.,-1,-0.3,.,.,
COCCN(C(=O)COC(=O)c1cccs1)c1c(N)n(Cc2ccccc2)c(=O)[nH]c1=O,.,-5,-0.1,.,.,
COc1ccc(N(CC(=O)N2CCN(c3ccccc3)CC2)S(=O)(=O)c2ccc(C)cc2)cc1,.,-3,-0.7,.,.,
CC12CCC(=O)N1C(C(=O)Nc1cccc(S(=O)(=O)N3CCCCCC3)c1)CS2 (stereo unspecified),.,-11,1.4,.,.,
O=C(NCc1ccccc1)c1ccc(CS(=O)(=O)c2ccc(Br)cc2)o1,.,-2,-1.2,.,.,
O=C(COc1ccc(S(=O)(=O)NC2CCCCC2)cc1)NCCC1=CCCCC1,-2%,-9,-0.3,9,-10,
O=[N+]([O-])c1ccccc1S(=O)(=O)n1nnc2ccccc21,-17%,5,3.2,-7,-24,
CCOC(=O)C1(Cc2cccc(Cl)c2)CCCN(C(=O)c2cccnc2)C1 (stereo unspecified),-7%,-12,4.8,3,.,
CCC(Oc1ccccc1)C(=O)N1CC(C)CC(C)C1 (stereo unspecified),-3%,-6,0.2,-1,30,
CCC(=O)Nc1ccc(S(=O)(=O)Nc2ccc(Cl)nn2)cc1,3%,1,-2.1,7,-33,
COc1ccc(C(=O)Cn2c(C)nc([N+](=O)[O-])c2Br)cc1,1%,98,-1.0,.,.,
O=C1c2ccccc2C(=O)N1Cc1ccccc1F,.,3,-0.2,.,.,
# The listing continues:
SMILES,Mtb H37Rv,Mtb bLac sens,RecA intein inh,Arbovirus anti,YopH PTP inh,others
C#CCOCCOCCOCCNc1nc(N2CCN(C(=O)[C@H](CCCCN)n3cc([C@@H](N)CC(C)C)nn3)CC2)nc(N2CCN(C(=O)[C@H](CCCCN)n3cc([C@@H](N)CC(C)C)nn3)CC2)n1,6%,12,-2.8,0,.,
O=C(O)c1nc(N2CCCCC2)ncc1Cl,-8%,1,1.7,-9,-36,
Clc1ccc(CNc2ccc(CNc3ncn[nH]3)cc2)cc1,5%,0,-2.5,-15,-10,
Clc1ccc(/C=N/Nc2ncnc3nc[nH]c23)cc1,.,2,-1.7,.,.,
COC(C(=O)Nc1ccnn1C1CCN(Cc2ccc(CO)o2)CC1)c1ccccc1 (stereo unspecified),.,?,2.0,.,.,
C/C(=N/Nc1ccc(F)cc1)c1ccc(Cl)s1,?,95,-3.0,-27,-20,
C=CCNc1nnnc2c1sc1nc(N3CCOCC3)c3c(c12)CCCC3,0%,1,-1.1,.,.,
CCN1CCN(C(CNS(=O)(=O)c2ccccc2)c2cccnc2)CC1 (stereo unspecified),.,-2,2.3,.,.,
C=CCOc1ccc(C2NC(=O)c3ccccc3O2)cc1OCC (stereo unspecified),.,-3,0.2,.,.,
Cc1c(NC(=S)N/N=C/c2cc([N+](=O)[O-])ccc2O)c(=O)n(-c2ccccc2)n1C,-3%,-2,6.4,.,.,
C=CCN(CC=C)S(=O)(=O)c1ccc(C(=O)Nc2nnc(COC)o2)cc1,3%,-6,-2.3,8,.,
Cc1cccc(N(CC(=O)N2CCCC2)S(=O)(=O)c2ccccc2)c1,-1%,-3,4.9,-2,-54,
C#CCOC(=O)c1ccc(-n2cncn2)nc1,-9%,-8,-1.0,6,-19,
O=C(C(=O)N1CCOCC1)c1cn(Cc2ccc(F)cc2)c2ccccc12,-9%,-1,0.4,.,.,
O=C(CCSc1ccc(Cl)cc1)N1CCN(c2ccc(O)cc2)CC1,4%,-1,-2.8,.,.,
O=C(CSCC(=O)NC1CCCC1)Nc1ccccc1,6%,-4,-3.0,-2,-11,
Cc1csc(NC(=O)C(Cl)c2ccccc2)n1 (stereo unspecified) (tested in a mixture with another compound),.,-4,15,.,.,
O=C(O)CC(C(=O)Nc1ccc(Cl)cc1)N1CCCCCC1 (stereo unspecified),.,3,-0.3,.,.,
C=CCn1c(NCc2cc(C)ccc2O)nc2ccccc21,13%,-9,2.8,29,-32,Arbovirus anti repeat=11
CSc1ccc(C2Nc3ccccc3-c3cc(C)nn32)cc1 (stereo unspecified),-5%,2,7.6,7,-36,
COc1cccc(NC(=O)N2CCCCCC2)c1,.,2,3.0,.,.,
Cc1ccc(CN(C)C(=O)CC2C(=O)NCCN2CC2CCCCC2)cc1 (stereo unspecified),2%,-10,0.4,-2,.,
Cc1cccc(OCC(=O)NNC(=O)Cn2c(=O)cnc3ccccc32)c1,.,-14,-1.3,.,.,
Cc1cc(C)cc(NC(=S)N2CCC(N(C)CC3CCCO3)CC2)c1 (stereo unspecified),7%,7,1.0,0,.,
Cc1nc2ncnn2c(C)c1CCC(=O)Oc1ccccc1,-1%,3,-2.0,-3,-32,
# Following part.
SMILES,Mtb H37Rv,Mtb bLac sens,RecA intein inh,Arbovirus anti,YopH PTP inh,others
CCC(C)(C)N=C(NC#N)Nc1cccnc1,-4%&0%,-4,1.5,5,.,
O=C(CC1CCCCC1)NCc1ccc(F)cc1,-1%,-9,0.7,3,.,
CCC(C)NC(=O)C1c2ccccc2C(=O)N1Cc1cc(OC)ccc1OC (stereo unspecified),-5%,-17,-0.4,12,-38,
CCOc1cc(C)c(S(=O)(=O)Nc2ccc(F)cc2)cc1C,-3%,-10,1.2,-26,-28,
CCOC(=O)Cc1c(C)nc2cc(-c3ccc(Cl)cc3)[nH]n2c1=O,-6%,7,-3.5,6,-29,
CCOC(=O)Cn1c(=O)oc2cc(S(=O)(=O)N3CCN(C(=O)c4ccco4)CC3)ccc21,-7%,0,-1.0,-1,-8,
O=C(c1ccc(-c2ccccc2)cc1)N1CCN(Cc2ccccn2)CC1,-3%,.,.,-2,-6,
CCOC(=O)C(Cc1ccccc1)C(=O)Nc1ccccc1C (stereo unspecified),-6%,24,2.0,2,-26,
CCOC(=O)c1c(CSc2ccc(C)cc2)oc2ccc(O)cc12,4%,8,15,-2,-40,
COc1ccc2oc(=O)c(C(=O)N3CCc4ccccc43)cc2c1,1%,2,0.9,2,-38,
O=C(NCCc1ccccc1)C1CCN(S(=O)(=O)c2cccc3nsnc23)CC1,.,-9,-1.2,3,-47,

# Compounds from the list above with an aryl methoxy group (eleven):
SMILES,Mtb H37Rv,Mtb bLac sens,RecA intein inh,Arbovirus anti,YopH PTP inh,others
COc1ccc2nc(NC3=NCCN3)sc2c1,0%,-2,1.4,-4,3,
COc1cc(/C=N/N2CCOCC2)ccc1OCc1ccc(Cl)cc1,?,99,1.3,18,.,
COc1cc(CO)ccc1OCc1ccc(Cl)nc1,-4%,6,-1.0,.,.,
COc1cccc(NC(=O)CCN2CCC(C(N)=O)CC2)c1,5%,-9,-0.6,-2,-46,
COc1cccc(CNC(=O)C2CCN(S(=O)(=O)c3ccc4c(c3)NC(=O)C(C)S4)CC2)c1 (stereo unspecified),.,-3,0.2,.,.,
COc1ccc(NC(=O)N2CCc3ccccc3C2)cc1OC,.,1,0.8,.,.,
COc1ccc(N(CC(=O)N2CCN(c3ccccc3)CC2)S(=O)(=O)c2ccc(C)cc2)cc1,.,-3,-0.7,.,.,
COc1ccc(C(=O)Cn2c(C)nc([N+](=O)[O-])c2Br)cc1,1%,98,-1.0,.,.,
COc1cccc(NC(=O)N2CCCCCC2)c1,.,2,3.0,.,.,
CCC(C)NC(=O)C1c2ccccc2C(=O)N1Cc1cc(OC)ccc1OC (stereo unspecified),-5%,-17,-0.4,12,-38,
COc1ccc2oc(=O)c(C(=O)N3CCc4ccccc43)cc2c1,1%,2,0.9,2,-38,

# A portion of the library; count on the stated rates, not on these rows.
